WNV NS2B-NS3 inh: inhibitors of West Nile virus NS2B-NS3 protease; z-score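 (tested at a level between 10 and 100 µM)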; WNV NS2B-NS3 protease, fluorogenic substrate Ex360/Em465; hits give low values; 65,000 tested, 0.18% active;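 active means z-score at -3 or under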;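 further: score is relative to mean and spread of the compound wells of a plate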
Target sequence (P06935 1371-1501 limits assumed): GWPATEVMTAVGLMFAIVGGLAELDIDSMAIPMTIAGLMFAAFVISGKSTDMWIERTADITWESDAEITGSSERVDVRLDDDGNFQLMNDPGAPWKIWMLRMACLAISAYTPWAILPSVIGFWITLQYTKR
Target sequence (P06935 1502-1679 limits assumed): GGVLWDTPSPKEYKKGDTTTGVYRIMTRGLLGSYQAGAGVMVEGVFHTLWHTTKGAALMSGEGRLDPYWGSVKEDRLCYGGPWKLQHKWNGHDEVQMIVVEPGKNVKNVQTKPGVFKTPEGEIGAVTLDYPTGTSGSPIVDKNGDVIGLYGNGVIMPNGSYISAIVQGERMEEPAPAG
MT1-MMP promoter: inhibitors of MT1-MMP promoter transcription, cell-based, luciferase reporter, luminescence (AID 618); MT1-MMP promoter luciferase reporter cells, luminescence; calls from a first round at 10 µM; hits with a dose series show EC50 in µM; 87,000 tested, 0.62% active;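 active means over half of the reporter light lost at 10 µM or EC50 under 50 µM; inactive means the rest and hits that failed the dose series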;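 further: actives suppress MT1-MMP promoter-driven transcription so potencies describe inhibitors; HT1080 fibrosarcoma cells; overnight exposure; toxic or luciferase-blocking compounds were not removed from the actives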
Hsc70 ATP site: Hsc70 inhibitors, probe displacement, primary screen, biochemical, fluorescence polarization (AID 568) | Hsc70 fluorescence polarization, probe displacement; higher % means a stronger effect; strong numbers were not always called active | one-dose displacement, % at 20 µM; IC50 in µM for titrated hits | 83,000 tested, under 10 active;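 active means displacement above 50% without optical interference and an IC50 on retest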;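 further: ATPase domain with a fluorescein-tagged ATP probe; 0% = vehicle and 100% = excess ADP; read after one hour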
Active calls of the source: *; i = inactive; . = not tested or not shown.

#	mol	Hsc70 ATP site	MT1-MMP promoter	WNV NS2B-NS3 inh
1	COc1ccc(-c2occ(C(=O)O)c2C(=O)O)cc1	1.3%	i	.
2	CCn1c(-c2ccc(F)cc2)n[nH]c1=S	-2.7%	i	0.04
3	COC(=O)c1sc(NC(=O)COc2ccccc2OC)nc1C	3.1%	i	-2
4	CCOC(=O)c1[nH]c2ccc(OC)cc2c1NC(=O)OC	3.9%	i	-1.4
5	CCOC(=O)C1CCCN(C(=O)c2ccc(CNc3c(N4CCC(C)CC4)c(=O)c3=O)cc2)C1 (stereo not given)	3.9%	i	0.31
6	CCc1ccc(Nc2nc(N)nc(CSc3nnnn3-c3ccccc3)n2)cc1	-0.3%	i	-0.16
7	O=C(O/N=C/C1=C(Cl)c2ccccc2CC1)c1ccc(F)cc1	-2.4%	i	.
8	CCOCCCNC(=O)C(NC(=O)c1ccc2c(c1)OCO2)c1ccc(OC)cc1 (stereo not given)	-10%	i	-0.16
9	CC1CN(c2nnnn2-c2ccccc2)CC(C)O1 (stereo not given)	5.2%	i	-0.0099
10	O=C(Cn1[nH]c(=O)c2ccccc2c1=O)NC1CCN(Cc2ccccc2)CC1	3.2%	i	0.62
11	Nc1nc(Cn2nnc(-c3ccccc3Cl)n2)nc(N2CCOCC2)n1	-9.3%	i	-0.79
12	COC(=O)c1[nH]c2ccccc2c1NC(=O)Oc1ccccc1	-1.2%	i	0.28
13	CCCC(=O)Nc1nc2ccc(OCC)cc2s1	-2.7%	i	-0.34
14	CCOc1cccc(NC(=O)C(Cc2cccs2)c2nn[nH]n2)c1 (stereo not given)	-1.6%	i	-0.99
15	CS(=O)(=O)Nc1ccc(S(=O)(=O)N2CCOCC2)cc1	7.3%	i	-0.36

Later entries:
#	mol	Hsc70 ATP site	MT1-MMP promoter	WNV NS2B-NS3 inh
16	COc1[nH]c(/N=C/c2ccccc2)c(C#N)c1C#N	3.8%	i	-0.37
17	COc1ccc(CNC(=O)C2CCCN(S(=O)(=O)c3c(C)nn(C)c3C)C2)cc1 (stereo not given)	0.4%	i	1.4
18	CCOC(=O)c1cc(-c2ccccc2)n(CCC(=O)NC(C)CC)c1C (stereo not given)	-0.7%	i	.
19	CC(=O)NC(Cc1cnc[nH]1)C(=O)O (stereo not given)	-2.6%	i	-0.62
20	COc1ccccc1N1CCN(C(=O)CCNS(=O)(=O)c2ccc(Br)s2)CC1	-4.9%	i	0.7
21	COC(=O)C(C)Oc1ccc(=O)[nH]n1 (stereo not given)	-1.5%	i	0.2
22	CCCOc1ccc(C2(C(=O)O)CCCC2)cc1	2.1%	i	3.2
23	C/C(=C\c1ccco1)C1C(C#N)=C(N)OC2=C1C(=O)CC(C)(C)C2 (stereo not given)	-11%	i	0.82
24	O=C(CCN1C(=O)C2C3C=CC(C3)C2C1=O)N1CCN(c2ccc(F)cc2)CC1 (stereo not given)	-6.5%	i	-0.79
25	COc1ccc(C2CC(c3ccccc3)n3nnnc3N2)cc1 (stereo not given)	0.7%	i	.
26	CCOc1ccc(C(N)=O)cc1OC	-2.1%	i	.
27	Nc1nc(CN2CCN(c3ccccn3)CC2)nc(Nc2ccc(F)cc2)n1	-5.8%	i	0.64
28	COc1ccc(N2CCN(CCCNS(=O)(=O)c3ccc4c(c3)oc(=O)n4C)CC2)cc1	1.8%	i	0.48
29	c1cncc(-c2nc3ccccn3c2Nc2ccc3c(c2)OCCO3)c1	1.9%	i	-0.7
30	CCC(C)(C)NC(=O)C(c1ccco1)N(C(=O)CNC(=O)c1cccs1)c1cccnc1 (stereo not given)	-3.3%	i	.

(list continues)
#	mol	Hsc70 ATP site	MT1-MMP promoter	WNV NS2B-NS3 inh
31	CC1CCCCN1C(=O)CSc1ccc(-c2ccc(F)cc2)nn1 (stereo not given)	-3.8%	i	0.58
32	CCOc1ccc(-c2nnc3sc(COc4ccc(Cl)cc4)nn23)cc1	1.9%	i	-1.1
33	N#CCSc1nc2scc(-c3cccs3)c2c(=O)n1CCc1ccccc1	-5.0%	i	2.1
34	Cc1ccc(CC2SC(=O)NC2=O)cc1Cl (stereo not given)	2.8%	i	-0.49
35	CCOCCCNC(=O)C(NC(=O)c1cnccn1)c1ccc(OC)cc1 (stereo not given)	-1.0%	i	0.64
36	CC(=O)Nc1c2c(nn1-c1cccc(Cl)c1)CS(=O)C2 (stereo not given)	2.5%	i	-0.44
37	COC(=O)c1oc2ccc(Cl)cc2c1-n1cccc1	1.5%	i	.
38	Cc1cn2c(-c3ccncc3)nnc2s1	-1.6%	i	-0.73
39	Cc1ccc(CNC(=O)CCn2nc(-c3ccc(Cl)cc3)ccc2=O)cc1	-3.2%	i	.
40	O=C(CCc1nc(-c2ccccc2F)no1)NC1CCN(Cc2ccccc2)CC1	-0.3%	i	1.1
41	CCOC(=O)c1sc2nc(CC(=O)OC)nc(NCc3ccc(Cl)cc3)c2c1C	0.1%	i	.
42	COc1cc(S(=O)(=O)Nc2ccccc2)ccc1NC=O	4.2%	i	.
43	CNc1oc(-c2cccs2)nc1C#N	-0.4%	i	1.5
44	Cc1ccc(-c2csc3n[nH]c(=S)n23)cc1	5.0%	i	0.06
45	C=C1c2ccccc2NC(=O)N1c1ccc(C)cc1	-1.2%	i	.

(cont.)
#	mol	Hsc70 ATP site	MT1-MMP promoter	WNV NS2B-NS3 inh
46	CC(C)CCn1nc(C(=O)OC(C)C(=O)NC(N)=O)c2ccccc2c1=O (stereo not given)	3.2%	i	-0.72
47	CN1CC(=O)N(CC(=O)Nc2ccc(N(C)C)cc2)c2ccccc2C1=O	1.1%	i	-0.92
48	CCOC(=O)C1CCCN(C(=O)c2cc3c(-c4cccc(OC)c4)nn(C)c3s2)C1 (stereo not given)	1.4%	i	0.5
49	O=C(CCCCn1c(=O)c2ccccc2n(CC(=O)NC2CCCC2)c1=O)NCc1ccco1	1.6%	i	1.6
50	COc1ccc(/C(N)=N/OC(=O)c2ccc(C)c([N+](=O)[O-])c2)cc1	0.3%	i	.
51	COc1ccc(S(=O)(=O)N(CC(=O)N2CCN(c3ccccc3OC)CC2)c2ccccc2)cc1	-2.7%	i	0.06
52	Brc1cccc(-c2nc(-c3ccncc3)no2)c1	8.0%	i	2.1
53	CCS(=O)(=O)NCCc1csc(-c2cccnc2)n1	-0.3%	i	-0.75
54	CCOC(=O)C1CCN(Cc2ccc(O)c(OC)c2)CC1	0.1%	i	0.35
55	CCOC(=O)CSc1nc2ccccc2c(=O)n1CC1CCCO1 (stereo not given)	1.6%	i	0.05
56	CC(C)CN1C(=O)NC(NC(=O)c2cccnc2)(C(F)(F)F)C1=O (stereo not given)	5.0%	i	-0.32
57	C=CCn1c(SCc2c(C(=O)OC)sc(N)c2C(=O)OC)nnc1-c1ccc(Cl)cc1	-1.3%	i	.
58	CCN(CC)S(=O)(=O)c1ccc(F)cc1	5.0%	i	-0.1
59	CCCCOc1c(Br)cc(/C=N/O)cc1OCC	0.5%	i	.
60	Cc1cc(Cl)c(S(=O)(=O)Nc2ccc3c(c2)OCO3)cc1OCC(=O)NC1CCCCC1	0.1%	i	.

Next section.
#	mol	Hsc70 ATP site	MT1-MMP promoter	WNV NS2B-NS3 inh
61	Cc1ccc2cc(CN(CCN3CCCC3)C(=O)Nc3ccccc3)c(=O)[nH]c2c1C	-2.6%	i	-0.41
62	CCc1nnc(NC(=O)c2nc3nccc(C)n3n2)s1	1.4%	i	0.08
63	CCOC(=O)N1CCC(Nc2ncnc3c2cnn3-c2ccccc2)CC1	-3.7%	i	-0.43
64	CCOC(=O)c1cnn(-c2sc(C(=O)OCC)c(C)c2C(=O)OCC)c1N	-10%	i	0.63
65	NC(=O)c1ccsc1NC(=O)c1cccs1	2.3%	i	-0.93
66	N#CC(C(=O)NC1CCCCC1)c1nc2ccccc2nc1N1CCN(c2ccccc2F)CC1 (stereo not given)	29%	i	-0.49
67	O=C1Nc2ccccc2C(O)(C(=O)NC2CC2)N1c1ccc(Cl)c(Cl)c1 (stereo not given)	-6.4%	i	0.31
68	CC(C)C(=O)Nc1nnc(Cc2ccccc2)s1	-11%	i	-1.1
69	CCOC(=O)C1CCN(CC(=O)c2c(C)[nH]c3cc(C)ccc23)CC1	5.7%	i	-0.5
70	CCn1cc(SCC(=O)NCc2ccc3c(c2)OCO3)c2ccccc21	0.5%	i	1.7
71	CCOc1ccc(C(=O)N2CCCN(C(=O)c3ccc(OCC)cc3)CC2)cc1	-0.5%	i	1.1
72	CCOc1ccc(NC(=O)c2ccncc2)cc1	-0.9%	i	0.55
73	CC(=O)n1cc(Nc2ccccc2C(=O)O)c2ccccc21	2.6%	i	0.1
74	Cc1ccc(CNC(=O)CN(C)S(=O)(=O)c2cccc3nsnc23)cc1	0.5%	i	0.0085
75	O=C(CC12CC3CC(CC(C3)C1)C2)N1CCCC1	0.6%	i	.

Later entries:
#	mol	Hsc70 ATP site	MT1-MMP promoter	WNV NS2B-NS3 inh
76	COC(=O)c1cnc2c(C(F)(F)F)cccc2c1OC	1.7%	i	-0.39
77	CC(C)(C)NC(=O)CSc1nc(O)cc(=O)n1-c1ccccc1F	-131%	i	-0.33
78	O=C(NC1CCCCC1)N(Cc1nc2ccccc2c(=O)[nH]1)C1CCCC1	2.0%	i	1.5
79	COc1ccc(C2=[N+]([O-])C(C)(C)N(O)C2C)cc1 (stereo not given)	1.7%	i	.
80	COc1ccccc1N1CC(C(=O)OC(C)C(=O)N2CCCc3ccccc32)CC1=O (stereo not given)	-2.8%	i	-1.1
81	CCS(=O)(=O)NCCc1ccc(OC)c(OC)c1	5.8%	i	-1.1
82	O=C(NCc1ccc2c(c1)OCO2)c1ccc(S(=O)(=O)NCC2CCCO2)cc1 (stereo not given)	-3.0%	i	-0.09
83	Cn1cc(C(=O)NC2CCCCCC2)c(=O)c2cc(S(=O)(=O)N3CCCC3)ccc21	6.9%	i	-1.1
84	CCCCOC(=O)Nc1ccc(OC)cc1S(=O)(=O)N1CCOCC1	3.5%	i	-0.68
85	Cc1ccccc1-n1c(=O)c2ccccc2n2nnnc12	-6.2%	i	0.74
86	CCS(=O)(=O)N1CCC(C(=O)NCc2ccccn2)CC1	-3.3%	i	0.4
87	C/C=C/C(=O)OCC(=O)Nc1ccc(F)cc1Cl	-1.1%	i	.
88	Cc1oc(-c2ccccc2)[n+]([O-])c1C	-1.4%	i	1.3
89	CCC(=O)N1CCN(c2ccccc2NC(=O)Cc2ccc(Cl)cc2)CC1	1.3%	i	-0.17
90	Cc1ccc(Nc2cc(C)nc3ncnn23)c(Cl)c1	-1.2%	i	-0.71

Next section:
#	mol	Hsc70 ATP site	MT1-MMP promoter	WNV NS2B-NS3 inh
91	COc1ccc2c(c1)NC(=O)CC(c1ccccc1)=N2	2.6%	i	.
92	O=C(CSc1ccc2nnc(-c3ccncc3)n2n1)Nc1ccc2c(c1)OCO2	0.7%	i	0.19
93	Cc1cc(C)c2c(c1)-c1cc(C)nn1C(c1ccc3c(c1)OCO3)N2 (stereo not given)	1.8%	i	0.44
94	Cc1ccc(-c2ccc(SCC(=O)Nc3nonc3C)nn2)cc1	5.7%	i	-0.69
95	CC1CC(=S)Nc2ccccc2S1 (stereo not given)	-0.6%	i	.
96	CCOc1c(Cl)cc(CNCC(C)C)cc1Cl	8.0%	i	.
97	CCOC(=O)C1CCCN(c2c(N3CCC(N4CCCCC4)CC3)c(=O)c2=O)C1 (stereo not given)	5.8%	i	1.2
98	O=C(CCNc1ccccc1)c1ccc2c(c1)OCO2	-4.9%	i	1.8
99	Cc1nc2ncccn2c1-c1csc(NCc2ccco2)n1	4.6%	i	-0.08
100	CCCC(=O)Nc1ccc(NC(=O)c2ccccn2)cn1	0.8%	i	0.67
101	CCS(=O)(=O)c1ccc2oc(SCC(=O)NC34CC5CC(CC(C5)C3)C4)nc2c1	-0.3%	i	.
102	O=C(CSc1nc(-c2ccco2)cc(C(F)(F)F)n1)Nc1cccnc1	-1.7%	i	0.62
103	C=CCOC(=O)C1=C(C)Nc2[nH]c(=O)[nH]c(=O)c2C1c1cccc(OC)c1 (stereo not given)	1.5%	i	.
104	Cc1ccc(S(=O)(=O)NC(CC(=O)N2CCc3ccccc32)c2ccco2)cc1 (stereo not given)	3.6%	i	1.9
105	COc1ccc(OC)c2c1sc(=NC(=O)c1ccco1)n2C	5.2%	i	-0.37

Further entries follow.
#	mol	Hsc70 ATP site	MT1-MMP promoter	WNV NS2B-NS3 inh
106	O=C1c2ccccc2C(=O)N1CCCc1nc(-c2ccccc2)no1	2.5%	i	.
107	O=C1NCCN1Cc1ccc(F)cc1	-1.8%	i	.
108	C(#Cc1ccc(C#CCN2CCOCC2)cc1)CN1CCOCC1	2.0%	i	-0.97
109	Cc1cccc(OCC(=O)N2CCN(C(=O)c3cccs3)CC2)c1	3.2%	i	-0.85
110	CCOC(=O)CCCNS(=O)(=O)c1c(C)ccc2nsnc12	0.7%	i	-0.93
111	CCCCNC(=S)NNC(=O)c1cccnc1	-0.2%	i	.

The list is partial, so the mix of outcomes need not match the whole.
